Compound activity: PubChem, Broad Institute
PD-1 reversal – reversal of PD-1 mediated T-cell inhibition; primary human CD4 T cells, PD-L1 beads, CellTiter-Glo 96 h; activation, % (test concentration not listed); 29,000 tested, under 10 active; AID 2316;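 active = replicate mean of 50% or more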;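 also: 0% = median vehicle wells and 100% = positive control; 100 nL library stock added to about 50 µL; numbers are from one replicate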
Shh pathway inh – Sonic Hedgehog pathway inhibition; Shh-LIGHT2 Gli-luciferase reporter, 30 h; inhibition, % (concentration not given with the values); 22,000 compounds, 2.1% hits; AID 2313;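 active = replicate mean of 65% or more; inconclusive = mean lower but half the replicates past it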;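 also: pathway switched on by Shh-conditioned medium diluted 1 in 25 in low serum; 100 nL library stock added to about 40 µL; 0% = median of neutral wells and 100% = positive control level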
YB-1 expression – YB-1 expression inhibition; U2OS, qRT-PCR YB-1 vs CDIP delta delta Cp, 16 h; hits give high values; zero = DMSO, each unit about twofold; delta delta Cp (YB-1 minus CDIP) (test concentration not listed); 30,000 compounds, 0.37% hits; AID 434959;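 active = delta delta Cp rounded down to an integer at or above 3, about 3 SD of DMSO wells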;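 also: higher means less YB-1 transcript or more CDIP transcript relative to DMSO; stock transfer was 100 nL into about 100 µL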
MITF inhib – inhibitors of MITF; inhibition, % (test concentration not listed); TRPM1 promoter luciferase, luminescence, 24 h; AID 2240; 37,000 compounds, 0.28% hits;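 active = most replicates at 85% or more, or half of them and the mean; inconclusive = half reach 85% but not the mean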;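 also: human melanocyte line stably carrying TRPM1 promoter luciferase reporter; 0% = vehicle wells and 100% = a positive control; the first replicate is given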
Starred values were filed as active, the others as inactive; ? = inconclusive; / = not tested or not shown.

The line under a structure holds: PD-1 reversal	Shh pathway inh	YB-1 expression	MITF inhib
> C[C@H]1CN([C@@H](C)CO)C(=O)c2cccc(NC(=O)Nc3ccc(C(F)(F)F)cc3)c2O[C@H]1CN(C)S(=O)(=O)c1cccs1
  -3.5	-9	-0.22	14
> Cc1ccc(-c2nnc(-n3cnc4cc(C)c(C)cc43)c3ccccc23)cc1
  0.8	/	3.8*	22
> Cc1c(Cl)cccc1NC(=O)CN(c1ccc(I)cc1)S(C)(=O)=O
  0.7	/	/	-18
> C[C@@H]1CN([C@H](C)CO)C(=O)c2cccc(NC(=O)c3ccc(-c4nccs4)cc3)c2O[C@@H]1CN(C)Cc1ccc(Oc2ccccc2)cc1
  -4.9	71*	-0.41	21
> C[C@@H]1CCCCO[C@@H](CN(C)S(=O)(=O)c2ccccc2)[C@@H](C)CN([C@H](C)CO)C(=O)c2cc(NC(=O)CCCN(C)C)ccc2O1
  /	-29	-0.069	0
> Cc1ccccc1N(CC(=O)Nc1cccc(Cl)c1Cl)S(C)(=O)=O
  0.4	/	/	-25
> CC(=O)OC1CCC(C)(O)C2OC(CC1(C)O)C(C(C)C)C2OC(=O)/C=C/c1ccccc1 (centres undefined)
  1.7	-27	-0.15	10
> CC(=O)OCC(CCn1cnc2cnc(N)nc21)COC(C)=O
  /	-16	-0.7	1
> CC1=CCC(C(=O)O)C(C(=O)Nc2ccc(OC(F)(F)F)cc2)C1 (centres undefined)
  1.4	/	/	-26
> Cc1ccc(S(=O)(=O)Nc2ccc3c(c2)C(=O)N([C@H](C)CO)C[C@H](C)[C@@H](CN(C)Cc2ccc(Oc4ccccc4)cc2)O3)cc1
  -0.1	/	0.19	-1
> Cc1ccc2[nH]c(C)c(CCC(=O)O)c(=O)c2c1
  1.2	/	/	11
> C[C@H](CO)N1C[C@H](C)[C@H](CN(C)C(=O)NC2CCCCC2)Oc2ccc(NS(=O)(=O)c3ccc(Cl)cc3)cc2C1=O
  -1.1	-22	0.012	3
> CCCc1cc(=O)[nH]c(SCC(=O)Nc2cccc(F)c2)n1
  1.9	/	/	6
> COc1ccc(NC(=O)N(C)C[C@H]2Oc3c(NC(=O)c4cnccn4)cccc3C(=O)N([C@H](C)CO)C[C@H]2C)cc1
  /	-26	0.53	-7
> CC(C)NC(=O)N(C)C[C@H]1OCCCC[C@@H](C)Oc2ccc(NC(=O)c3ccccc3)cc2C(=O)N([C@H](C)CO)C[C@@H]1C
  1.4	-31	-0.43	-23
> CCc1cccc(C)c1NC(=O)CSc1nnc(-c2ccccc2)n1-c1ccccc1
  1.3	/	/	20
> CCn1c(SCC(=O)Nc2ccc(F)cc2F)nnc1-c1cccs1
  0.1	/	/	8
> C[C@@H]1CCCCO[C@H](CN(C)C(=O)Nc2ccc(F)cc2)[C@@H](C)CN([C@H](C)CO)C(=O)c2cc(NC(=O)C3CCCCC3)ccc2O1
  -0.7	-14	-0.5	7
> C[C@@H]1CN([C@H](C)CO)C(=O)c2cc(NS(=O)(=O)c3ccc(Cl)cc3)ccc2O[C@@H]1CN(C)Cc1ccccc1
  -0.7	13	-0.19	-14
> COc1ccc(S(=O)(=O)Nc2cccc3c2O[C@H](CN(C)C(=O)NC2CCCCC2)[C@H](C)CN([C@H](C)CO)C3=O)cc1
  -1.5	8	-0.34	-6
> C[C@@H]1CCCCO[C@H](CN(C)C(=O)Nc2cccc3ccccc23)[C@@H](C)CN([C@H](C)CO)C(=O)c2cc(NC(=O)c3ccncc3)ccc2O1
  /	-3	0.077	-11
> C[C@H]1CN([C@@H](C)CO)C(=O)c2cccc(NS(C)(=O)=O)c2O[C@@H]1CN(C)Cc1ccccc1
  /	-43	-0.58	-10
> CC(C)(C)c1ccc(S(=O)(=O)N2CCN(c3ccc([N+](=O)[O-])c(NCc4cccnc4)c3)CC2)cc1
  -3.8	/	/	28
> C[C@H](CO)N1C[C@H](C)[C@H](CN(C)C(=O)Nc2ccc(C(F)(F)F)cc2)Oc2ccc(NC(=O)C3CC3)cc2C1=O
  -3.5	53	0.57	-3
> COc1ccc(NC(=O)N(C)C[C@H]2Oc3ccc(NC(=O)Nc4ccc(C(F)(F)F)cc4)cc3C(=O)N([C@H](C)CO)C[C@@H]2C)cc1
  /	13	0.077	-4
> C[C@H]1CN([C@@H](C)CO)C(=O)c2cc(NC(=O)C3CC3)ccc2O[C@@H]1CN(C)C(=O)Nc1ccccc1
  0.5	/	-0.24	-12
> C[C@H]1CN([C@@H](C)CO)C(=O)c2cccc(NS(=O)(=O)c3ccc(F)cc3)c2O[C@@H]1CN(C)C(=O)Nc1ccc(F)cc1
  1.3	-30	-0.74	-1
> C[C@H](CO)N1C[C@H](C)[C@@H](CN(C)C(=O)Nc2cccc3ccccc23)Oc2ccc(NC(=O)CCC(F)(F)F)cc2C1=O
  /	-45	0.31	-8
> C[C@H]1CN([C@@H](C)CO)C(=O)Cc2cc(NC(=O)Cc3ccccc3)ccc2O[C@H]1CN(C)Cc1ccc(Oc2ccccc2)cc1
  -1.9	-22	-0.034	39
> CNC[C@H]1Oc2ccc(NS(=O)(=O)c3ccc(OC)cc3)cc2CC(=O)N([C@@H](C)CO)C[C@H]1C
  1.9	18	-0.068	-6
> CC(=O)Nc1ccc(Br)cc1
  1.9	-18	0.11	-12
> C[C@H](CO)N1C[C@H](C)[C@H](CN(C)C(=O)Nc2ccccc2)Oc2ccc(NC(=O)Nc3cccc4ccccc34)cc2CC1=O
  /	/	-0.47	-4
> Cc1noc(C)c1NC(=O)Nc1ccc2c(c1)C(=O)N([C@H](C)CO)C[C@H](C)[C@@H](CN(C)C(=O)NC(C)C)OCCCC[C@@H](C)O2
  /	-20	-0.26	1
> O=C(CSc1nc2ccccc2[nH]1)Nc1ccc(I)cc1
  -0.7	/	/	16
> C[C@H](CO)N1C[C@H](C)[C@@H](CN(C)C(=O)Nc2ccc3c(c2)OCO3)Oc2ccc(NC(=O)CCC(F)(F)F)cc2C1=O
  1.0	-28	0.18	4
> Cc1occc1C(=O)C(C#N)=C(NCc1cccnc1)NCc1cccnc1
  -1.6	-9	-0.21	-3
> Cc1ccc(S(=O)(=O)Nc2cccc3c2O[C@@H](CN(C)C(=O)NC(C)C)[C@H](C)CN([C@H](C)CO)C3=O)cc1
  2.4	-28	-0.26	0
> C[C@@H]1CN([C@@H](C)CO)C(=O)c2cccc(NS(C)(=O)=O)c2O[C@H]1CN(C)S(=O)(=O)c1cn(C)cn1
  /	-6	-0.15	-3
> Cc1c(Br)c(C(F)(F)F)nn1CC(N)=O
  -0.3	-25	-0.19	-14
> C[C@H](CO)N1C[C@H](C)[C@H](CN(C)C(=O)Nc2cccc3ccccc23)Oc2ccc(NC(=O)Nc3cccc4ccccc34)cc2C1=O
  -3.0	48	0.11	13
> COc1ccc(NC(=O)N(C)C[C@@H]2Oc3ccc(NC(=O)CCCN(C)C)cc3C(=O)N([C@@H](C)CO)C[C@H]2C)cc1
  /	-24	0.048	4
> O=C(CN1C(=O)C2C3CCC(C3)C2C1=O)Nc1cccc(C(=O)O)c1 (centres undefined)
  4.1	/	/	-8
> COc1ccc(C)cc1N(CC(=O)Nc1c(C)cc(C)cc1C)S(C)(=O)=O
  -0.1	/	/	-7
> C[C@H](CO)N1C[C@H](C)[C@H](CN(C)C(=O)Nc2ccc3c(c2)OCO3)Oc2c(NS(=O)(=O)c3cn(C)cn3)cccc2C1=O
  2.1	-21	1	-1
> C[C@@H]1CN([C@@H](C)CO)C(=O)Cc2cc(NC(=O)Nc3ccc4c(c3)OCO4)ccc2O[C@@H]1CN(C)Cc1ccc(C(=O)Nc2ccccc2N)cc1
  -2.4	/	-0.16	-30
> COc1ccc(NC(=O)N(C)C[C@@H]2Oc3c(NC(=O)Nc4ccc(C(F)(F)F)cc4)cccc3C(=O)N([C@@H](C)CO)C[C@@H]2C)cc1
  -0.7	-7	-0.026	-5
> C[C@H]1CN([C@@H](C)CO)C(=O)Cc2cc(NC(=O)Cc3ccccc3)ccc2O[C@@H]1CN(C)C(=O)Nc1ccccc1
  -0.1	-18	-0.35	-5
> C[C@H](CO)N1C[C@H](C)[C@H](CN(C)S(=O)(=O)c2cn(C)cn2)Oc2ccc(NC(=O)c3ccncc3)cc2CC1=O
  0.9	10	0.081	-3
> Cc1ccc(S(=O)(=O)N(C)C[C@H]2Oc3ccc(NC(=O)Nc4ccc5c(c4)OCO5)cc3CC(=O)N([C@@H](C)CO)C[C@@H]2C)cc1
  -0.8	2	-0.34	4
> O=C(CSC1CC(=O)N(c2ccc(OC(F)(F)F)cc2)C1=O)Nc1ccc(Cl)cc1 (centres undefined)
  -1.6	/	/	-14
> Cc1ccc(S(=O)(=O)N(C)C[C@@H]2Oc3c(NS(=O)(=O)c4ccc(F)cc4)cccc3C(=O)N([C@@H](C)CO)C[C@H]2C)cc1
  /	?	-0.67	-10
> O=C(CSc1nnc(-c2ccccc2O)n1-c1ccccc1)N1CCN(c2ccccc2)CC1
  -2.1	/	/	18
> C[C@H]1CN([C@@H](C)CO)C(=O)Cc2cc(NC(=O)Cc3cn(C)c4ccccc34)ccc2O[C@H]1CN(C)C(=O)Nc1ccc(F)cc1
  -1.4	/	-0.5	2
> Cc1ccc(S(=O)(=O)Nc2ccc3c(c2)C(=O)N([C@H](C)CO)C[C@@H](C)[C@H](CN(C)C(=O)Nc2ccc(F)cc2)O3)cc1
  3.3	/	-0.59	5
> O=C(CN1CCOCC1)Nc1sc2c(c1C(=O)Nc1ccc(Br)cc1)CCC2
  -2.1	/	/	53
> COc1ccc(S(=O)(=O)Nc2cccc3c2O[C@H](CN(C)CC2CCCCC2)[C@H](C)CN([C@@H](C)CO)C3=O)cc1
  0.0	-26	0.31	-6
> C[C@H](CO)N1C[C@H](C)[C@@H](CN(C)C(=O)NC2CCCCC2)Oc2ccc(NC(=O)NC3CCCCC3)cc2C1=O
  -0.3	17	-0.018	-25
> Cc1cc(C(=O)Nc2cccc3c2O[C@H](CN(C)S(=O)(=O)c2ccc(Cl)cc2)[C@H](C)CN([C@H](C)CO)C3=O)n(C)n1
  2.3	6	-0.061	-8
> O=C(O)COc1ccc(NC(=O)c2cccc(I)c2)cc1
  2.4	/	/	-3
> COc1ccc(NC(=O)N(C)C[C@H]2Oc3c(NS(=O)(=O)c4ccc(F)cc4)cccc3C(=O)N([C@@H](C)CO)C[C@@H]2C)cc1
  1.9	-12	-0.03	0

(next part)
The line under a structure holds: PD-1 reversal	Shh pathway inh	YB-1 expression	MITF inhib
> COc1cc(/C=N\n2cn[nH]c2=S)cc(OC)c1OC
  -0.5	6	0.26	-31
> CCn1c(SCc2nc3ccccc3c(=O)[nH]2)nnc1-c1ccccc1Br
  -0.7	/	/	47
> Cc1ccc(S(=O)(=O)N(C)C[C@@H]2Oc3c(NC(=O)Nc4c(C)noc4C)cccc3C(=O)N([C@H](C)CO)C[C@@H]2C)cc1
  2.4	0	-0.24	0
> CC(=O)Nc1nonc1-c1nc2ccccc2n1Cc1ccc(Cl)cc1Cl
  -0.7	/	/	14
> CC1(C)CC(=O)c2cc(C(=O)NCCCN3CCOCC3)c(=O)n(-c3ccccc3)c2C1
  -1.8	/	/	-19
> C[C@@H]1CN([C@@H](C)CO)C(=O)c2cccc(NS(=O)(=O)c3cn(C)cn3)c2O[C@H]1CN(C)C(=O)Nc1ccc2c(c1)OCO2
  1.5	-35	0.18	-10
> C[C@@H]1CCCCO[C@@H](CN(C)S(=O)(=O)c2ccccc2)[C@@H](C)CN([C@H](C)CO)C(=O)c2cc(N(C)C)ccc2O1
  /	21	-0.29	1
> C[C@H]1CN([C@@H](C)CO)C(=O)c2cc(NS(=O)(=O)c3ccccc3)ccc2O[C@@H]1CN(C)C(=O)Nc1ccccc1
  1.7	-18	-0.13	8
> Cc1noc(C)c1S(=O)(=O)N(C)C[C@@H]1Oc2ccc(NC(=O)Cc3ccccc3)cc2CC(=O)N([C@@H](C)CO)C[C@@H]1C
  -2.2	22	0.13	-14
> C[C@H]1CN([C@@H](C)CO)C(=O)Cc2cc(NC(=O)Cc3ccccc3)ccc2O[C@@H]1CN(C)C(=O)Nc1cccc2ccccc12
  /	-36	-0.055	0
> Cc1ccc(S(=O)(=O)Nc2ccc3c(c2)C(=O)N([C@@H](C)CO)C[C@@H](C)[C@H](CN(C)C(=O)Nc2c(C)noc2C)O3)cc1
  0.2	-18	-0.15	9
> C[C@@H]1CN([C@H](C)CO)C(=O)Cc2cc(NC(=O)Nc3ccccc3)ccc2O[C@H]1CN(C)Cc1ccc(-c2ccccc2)cc1
  -0.3	-29	0.18	1

Whole records, looked up by structure. Values in the order: PD-1 reversal	Shh pathway inh	YB-1 expression	MITF inhib
Cc1ccc(S(=O)(=O)N(C)C[C@@H]2Oc3c(NC(=O)Nc4c(C)noc4C)cccc3C(=O)N([C@H](C)CO)C[C@@H]2C)cc1 reads 2.4	0	-0.24	0
C[C@@H]1CCCCO[C@@H](CN(C)S(=O)(=O)c2ccccc2)[C@@H](C)CN([C@H](C)CO)C(=O)c2cc(N(C)C)ccc2O1 reads /	21	-0.29	1
Cc1noc(C)c1S(=O)(=O)N(C)C[C@@H]1Oc2ccc(NC(=O)Cc3ccccc3)cc2CC(=O)N([C@@H](C)CO)C[C@@H]1C reads -2.2	22	0.13	-14

An excerpt (hit frequency here may not be typical).
